GIV Gai3 FP = GIV-Galpha-i interaction inhibition. P08753. 210,000 compounds, 0.42% hits. percent of control (FP), % (concentration not given with the values). Galpha-i3/FITC-GIV peptide fluorescence polarization, 90 min; hits give low values; scaled: aluminum fluoride 0%, vehicle 100%;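 active = replicate mean at 85% of control or lower, very high polarization wells dropped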;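 also: wells of about 15 µL received 100 nL stock; the first replicate is given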
Target sequence (P08753 whole entry, looked up): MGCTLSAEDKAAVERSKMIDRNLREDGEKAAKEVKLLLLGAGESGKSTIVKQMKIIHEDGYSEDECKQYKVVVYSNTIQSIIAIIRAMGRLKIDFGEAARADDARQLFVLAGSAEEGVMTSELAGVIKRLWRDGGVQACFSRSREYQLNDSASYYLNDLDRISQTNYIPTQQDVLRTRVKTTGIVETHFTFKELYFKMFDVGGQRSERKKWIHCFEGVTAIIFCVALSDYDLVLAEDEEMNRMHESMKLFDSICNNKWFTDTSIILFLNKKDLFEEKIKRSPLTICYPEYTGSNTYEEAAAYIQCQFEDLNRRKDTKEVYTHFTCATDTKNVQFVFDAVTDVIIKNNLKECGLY
Sa growth inh = inhibitors of Staphylococcus aureus growth at 42 °C | 170,000 compounds, 0.53% hits | AID 720641 | S. aureus RN4220 growth, OD600, 20 h; hits give low values | relative growth, % (no concentration beside the values);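 active = growth at 42 °C up to 50% and 20 or more points under that at 30 °C, or under 10% at both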;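 also: 300 nL library stock went into each well; scaled to the means of positive and negative controls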
HCMV UL50-53 inh = inhibitors of HCMV UL50-UL53 nuclear egress complex interaction. HTRF UL50-UL53 interaction, normalized percent inhibition. inhibition, % (test concentration not listed). 190,000 compounds, 0.15% hits. AID 1918969;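 active = both replicates at 50% or more, plus weaker picks with an unusually low signal ratio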;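 also: stock transfer was 100 nL into about 20 µL; 0% = negative control wells and 100% = wells with untagged competitor protein; inactives centre near -12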
Sa growth inh second temp = also measured in Sa growth inh; calls as there; relative growth, %; measured here: growth at 30 °C;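 optical density after 20 h as mean of two plates; 100% = untreated growth and lower means inhibition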
* marks the source's active call; other numbers are inactive results; / = no result given; & = joins results of further samples.

Key to letters: A = GIV Gai3 FP; B = Sa growth inh; C = Sa growth inh second temp; D = HCMV UL50-53 inh
> NC(=O)CSc1ncnc2sc3c(c12)CCCC3
  A = / | B = 102.2 | C = 93.1 | D = 1.1
> Cc1nnsc1C(=O)Oc1ccc(C#N)cc1
  A = 98.4 | B = 93.3 | C = 89.0 | D = -30.6
> Cc1cc(C(=O)OC(C)C(=O)Nc2ccc(Cl)cn2)c(C)o1 (stereo not given)
  A = / | B = 71.2 | C = 79.2 | D = -15.5
> O=S(=O)(NCC(c1cccnc1)N1CCN(Cc2ccccc2)CC1)c1ccccc1 (stereo not given)
  A = 108.0 | B = 84.0 | C = 81.4 | D = /
> C(=N\c1c(-c2ccccc2)nc2n1CCS2)/c1ccccc1
  A = 100.8 | B = 95.2 | C = 83.0 | D = -41.2
> CC(C)(C)NC(N)=S
  A = / | B = 102.2 | C = 93.8 | D = -7.9
> Cc1cccc(-n2ncnc2-c2cc3c(n(-c4ccccc4)c2=O)CC(C)(C)CC3=O)c1C
  A = 101.8 | B = / | C = / | D = -38.2
> CCC(=O)N1CCc2cc(Br)cc(S(=O)(=O)CCC(=O)Nc3ccccc3C)c21
  A = 103.3 | B = 92.0 | C = 90.2 | D = -11.4
> COc1ccc(NCC(O)Cn2c3ccc(Cl)cc3c3cc(Cl)ccc32)c(OC)c1 (stereo not given)
  A = 102.6 | B = 96.1 | C = 78.6 | D = /
> O=C(Nc1ccc(N2CCOCC2)cc1)C1=NCCN1
  A = / | B = 65.8 | C = 91.2 | D = -45.3
> CCCN(CCC)S(=O)(=O)c1ccc(C(=O)NN)cc1
  A = 99.6 | B = 74.5 | C = 74.1 | D = -25.8
> NNC(=O)COc1ccc2oc3c(c2c1)CCCC3
  A = / | B = 87.5 | C = 89.2 | D = -3.4
> CN1C(=O)/C(=C2\SC(N)=NC2=O)c2ccccc21
  A = 102.2 | B = 88.4 | C = 86.9 | D = -30.6
> O=c1cc(CSc2nnc(Cn3nnc4ccccc43)o2)c2ccccc2[nH]1
  A = 97.7 | B = 103.8 | C = 74.6 | D = -7.3
> CCC(C(=O)NC1CCCCC1)n1c(SCc2cccc(C)c2)nc2ccncc21 (stereo not given)
  A = 102.5 | B = 100.7 | C = 84.2 | D = -21.4
> CCOc1ccc(-n2c(SCC(=O)N3CCOCC3)nc3c([nH]c4ccccc43)c2=O)cc1
  A = 95.7 | B = 93.8 | C = 95.7 | D = /
> Cc1ccc(OCC(=O)Nc2ccccc2C(=O)OCc2cc(=O)n3nc(C4CC4)sc3n2)cc1
  A = 102.5 | B = 99.4 | C = 86.2 | D = /
> CCn1ccc2cc(S(=O)(=O)N3CCC(C(=O)NCc4cccc(Cl)c4)CC3)ccc21
  A = 102.6 | B = 107.6 | C = 91.9 | D = /
> COc1ccc2oc(C(=O)OCC(=O)NC3(C#N)CCCC3)c(C)c2c1
  A = / | B = 112.1 | C = 93.8 | D = -6.5
> CCCc1nnc(NC(=O)c2cc(=O)c3cc(Br)ccc3o2)s1
  A = 100.4 | B = / | C = / | D = -40.4
> CC(C)(C)NC(=O)CS(=O)(=O)c1ccccc1
  A = 100.7 | B = 101.8 | C = 98.0 | D = -8.4
> c1ccc(C2(Cn3ccc4ccccc43)OCCO2)cc1
  A = 100.7 | B = 108.8 | C = 98.9 | D = /
> CCc1ccc(C2C(C(=O)OC)C(=O)CC(C)(O)C2C(=O)OC)cc1 (stereo not given)
  A = 100.2 | B = 92.9 | C = 84.4 | D = -25.1
> Nc1ncnc2nc(SCC(=O)Nc3ccc(Br)cc3)[nH]c12
  A = 106.7 | B = / | C = / | D = -10.8
> Cc1cc(C)cc(-n2cnc3cc(C(=O)NCCc4ccccc4)ccc32)c1
  A = 97.5 | B = 106.7 | C = 91.0 | D = /
> CC(C)(C)NC(=O)C1CC2CCCCC2CN1C(=O)c1ccno1 (stereo not given)
  A = 99.6 | B = 104.1 | C = 99.8 | D = -2.3
> O=C(CSc1n[nH]c2nc3ccccc3n12)N1CCc2ccccc21
  A = 109.7 | B = / | C = / | D = 2.7
> CSc1nc(C)c2c(n1)CCCC2
  A = 101.3 | B = 98.3 | C = 98.5 | D = -23.9
> CCOc1ccc(CCNC(=O)Cc2ccc(NC(=O)N3CCSc4ncccc43)cc2)cc1
  A = 102.3 | B = 109.8 | C = 89.5 | D = /
> CC1CCN(S(=O)(=O)c2cc(C(=O)N3CCN(c4cccc(Cl)c4)CC3)n(C)c2)CC1
  A = 100.0&105.5 | B = 91.2 | C = 87.8 | D = -9.6
> CC(C)c1ccc(NC(=O)c2cccc3c2C(=O)N(C2CCCCC2)C3)cc1
  A = 105.1 | B = 104.9 | C = 87.5 | D = -9.5
> CC(C)=C1N=C(c2ccccc2)OC1=O
  A = 112.1 | B = 75.2 | C = 85.8 | D = /
> Brc1ccc(C2=CSC3=NCCN23)cc1
  A = 99.9 | B = 77.9 | C = 79.6 | D = -41.6
> COc1ccc(OCC(=O)Nc2ccc3oc(-c4ccncc4)nc3c2)cc1
  A = 104.6 | B = 102.5 | C = 84.9 | D = -12.5
> CCOC1(C(F)(F)F)NC(=O)N(c2ccc(OC)cc2)C1=O (stereo not given)
  A = 105.7 | B = 106.5 | C = 104.5 | D = -10.6
> CCOc1ccccc1C(=O)NCCc1cn2ccc(C)cc2n1
  A = 95.6 | B = 108.1 | C = 86.2 | D = /
> Cc1ccc(Cl)cc1N1CCN(C(=O)c2cccn2-c2nnc(N3CCCC3)s2)CC1
  A = 96.9 | B = 89.7 | C = 88.5 | D = /
> CCOC(=O)c1cc(-c2ccccc2)n(CC(=O)Nc2ccc(CC)cc2)c1C
  A = 100.8 | B = 108.1 | C = 75.5 | D = /
> O=C(C1CC1)N1CCc2cc(Br)cc(S(=O)(=O)Nc3ccc(C(F)(F)F)cc3)c21
  A = 94.7 | B = 106.9 | C = 73.0 | D = -9.1
> CCCc1cc(C(=O)NC2CC2)cs1
  A = 102.6 | B = 107.1 | C = 92.7 | D = -16.1
> CCOCCCNC(=O)c1ccc2nc(CCc3ccccc3)oc2c1
  A = 101.3 | B = 88.3 | C = 85.2 | D = /
> O=C1C(=O)N(CCO)C(c2ccccc2)/C1=C(/O)c1ccccc1 (stereo not given)
  A = 102.8 | B = 95.8 | C = 95.7 | D = 2.4
> CCOc1ccc(S(=O)(=O)N(C)CC(=O)N2CCOCC2)cc1
  A = 108.5 | B = 71.8 | C = 89.4 | D = 1.6
> CC(C(=O)Nc1ccon1)N1C(=O)c2ccccc2S1(=O)=O (stereo not given)
  A = 100.9 | B = 80.2 | C = 88.6 | D = -23.7
> COc1ccc(C(=O)NC(C)c2nnc(SCC(=O)Nc3nc(C)c(C)s3)n2C)cc1 (stereo not given)
  A = 105.2 | B = 81.7 | C = 79.1 | D = -27.0
> Cc1ccc(NCc2cccn2-c2nnc(N3CCC(C(=O)NCCc4ccc(Cl)cc4)CC3)s2)cc1
  A = 100.3 | B = 106.8 | C = 108.5 | D = -11.9
> CNCC(=O)Nc1ccc(OC)cc1
  A = / | B = 88.7 | C = 89.3 | D = -21.0
> Cc1ccc(/C(N)=N\O)n1C
  A = / | B = 87.7 | C = 90.9 | D = 7.8
> CCc1ccc2occ(CC(=O)N(Cc3ccc(N(C)C)cc3)C3CCS(=O)(=O)C3)c2c1 (stereo not given)
  A = 106.9 | B = 121.2 | C = 81.8 | D = -18.4
> CCn1nc(C)c(CCNC(=O)c2ccc(NC(=O)C3=CSCCO3)cc2)c1C
  A = 105.0 | B = 89.4 | C = 84.3 | D = -49.4

(more compounds)
Key to letters: A = GIV Gai3 FP; B = Sa growth inh; C = Sa growth inh second temp; D = HCMV UL50-53 inh
> COc1ccc(Cc2nnc3sc(-c4c[nH]c5ccccc45)nn23)cc1
  A = 104.8 | B = / | C = / | D = -7.8
> CCCOc1ccccc1C(=O)Nc1ccc(-c2nc3ccc(C)cc3s2)cc1
  A = 107.8 | B = 88.9 | C = 92.2 | D = -4.1
> CC1CCC(NC(=O)CCc2cn(Cc3ccccc3Cl)c3ccccc23)CC1 (stereo not given)
  A = 104.3 | B = 86.8 | C = 89.7 | D = /
> COC(=O)C1(C(F)(F)F)N=C(N2CCCCC2)OC(N2CCCCC2)=N1
  A = 107.4 | B = 95.3 | C = 89.3 | D = -10.0
> COc1ccc(OC)c(NC(=O)C2C3CC/C=C\CC/C=C/CCC32)c1 (stereo not given)
  A = / | B = 86.8 | C = 104.7 | D = 2.4
> CCOC(=O)c1sc2ccccc2c1S(=O)(=O)N1CCC(C(N)=O)(N2CCCCC2)CC1
  A = 105.6 | B = / | C = / | D = -9.1
> COc1cc(Cl)cc2c1OC=CC(C(=O)Nc1nccs1)=C2
  A = 110.9 | B = / | C = / | D = 22.0
> Cn1cc(C(=O)c2ccccc2O)cc1-c1nc2ccccc2s1
  A = / | B = 113.1 | C = 78.0 | D = 1.4
> CCOc1ccccc1C(=O)N(Cc1ccccc1F)C1CCS(=O)(=O)C1 (stereo not given)
  A = 98.1 | B = 103.5 | C = 86.6 | D = -2.9
> COc1ccc(-c2noc(N(C)CC(=O)NCCC3=CCCCC3)n2)cc1
  A = 103.2 | B = 104.0 | C = 95.1 | D = 1.4
> Cn1c(=O)cc(SCC(=O)NCCCN2CCOCC2)c2ccccc21
  A = 101.3 | B = 91.3 | C = 87.9 | D = -21.4
> Cc1nc2n(CCN3CCOCC3)c3ccccc3n2n1
  A = 101.4 | B = 89.5 | C = 89.5 | D = /
> C=C(C)C(=O)Oc1ccc(NC(C)=O)cc1
  A = / | B = 96.1 | C = 88.9 | D = -2.3
> Cc1cn2c(=O)cc(COc3cc(C)c(Cl)c(C)c3)nc2s1
  A = 108.1 | B = 100.8 | C = 87.3 | D = 14.3
> CCOC(=O)Cc1csc(-c2ccc(Cl)cc2)n1
  A = 102.4 | B = 119.8 | C = 75.0 | D = -8.2
> CSc1ncccc1C(=O)OCC(=O)Nc1ccc(N2CCOCC2)cc1
  A = / | B = 101.7 | C = 92.9 | D = -29.3
> CCSc1nn(CC(=O)Nc2cccc(F)c2)c(N)c1S(=O)(=O)c1ccccc1
  A = 106.7 | B = / | C = / | D = -14.6
> CCOC(=O)CC1C(=O)NCCN1Cc1ccco1 (stereo not given)
  A = 105.3 | B = 90.0 | C = 97.4 | D = 9.1
> CC(C)(C)c1ccc(OCC(=O)Nc2cccc3nsnc23)cc1
  A = 99.8 | B = 91.1 | C = 80.4 | D = /
> Cc1ccc2c(Cl)c(C(=O)Nc3onc4c3CCCC4)sc2c1
  A = 102.9 | B = / | C = / | D = -13.6
> COc1ccc2nc(SCc3cnc(C)nc3N)[nH]c2c1
  A = 109.2 | B = 117.7 | C = 81.4 | D = /
> CC(C)Cn1c(=O)c2ccc(C(=O)NC(C)C)cc2n2c(=O)n(CC(N)=O)nc12
  A = 101.8 | B = / | C = / | D = -32.4
> CCOC(=O)C1=C(C)N=c2s/c(=C3\C(=O)N(CC(N)=O)c4ccccc43)c(=O)n2C1c1ccccc1 (stereo not given)
  A = 106.0 | B = / | C = / | D = -1.0
> N=C1S/C(=C\c2ccc(-c3ccccc3[N+](=O)[O-])o2)C(=O)N1c1ccc2c(c1)OCO2
  A = 113.7 | B = / | C = / | D = 0.4
> CCc1nnc(NC(=O)C2=CCN(S(=O)(=O)c3ccc(F)cc3)CC2)s1
  A = 106.4 | B = 99.5 | C = 88.5 | D = /
> CCC(C)NC(=O)C1c2ccccc2C(=O)N1Cc1ccc(F)cc1 (stereo not given)
  A = 108.3 | B = 92.3 | C = 97.5 | D = -0.1
> CCOC(=O)CN1CC23C=CC(O2)C(C(=O)NCc2ccccc2OC)C3C1=O (stereo not given)
  A = 104.3 | B = 99.1 | C = 89.8 | D = -20.4
> CC1CCCCN1CC(=O)N1CCCc2c1c(=O)oc1ccc(OCc3ccccc3)cc21 (stereo not given)
  A = 102.0 | B = 113.3 | C = 88.5 | D = -16.3
> COc1ccc(C(=O)CN2CCN(S(=O)(=O)c3ccc(C(C)C)cc3)CC2)cc1OC
  A = 108.2 | B = 94.8 | C = 100.4 | D = -5.7
> O=c1c2oc3cccc4c3n(c=2c(=O)c2ccccc12)CCC4
  A = 107.9 | B = 81.3 | C = 76.5 | D = -13.9
> NC(=O)COC(=O)c1ccc(S(=O)(=O)N2CCCC2)cc1
  A = / | B = 103.8 | C = 89.8 | D = -4.0
